ALR H2O2 inh: human ALR oxidase inhibition via reduced H2O2; P55789; purified ALR, DTT oxidation, H2O2 HRP-luminol luminescence; inhibition, % (test concentration not listed); actives 3.8% (n = 290,000);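 active = mean and each replicate at 75% or more; inconclusive = only one of the two met; inactive = neither met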;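 note: stock transfer was 7.5 nL into about 7.5 µL; 0% = neutral wells and 100% = wells with inactivated enzyme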
Target sequence (P55789 whole entry, looked up): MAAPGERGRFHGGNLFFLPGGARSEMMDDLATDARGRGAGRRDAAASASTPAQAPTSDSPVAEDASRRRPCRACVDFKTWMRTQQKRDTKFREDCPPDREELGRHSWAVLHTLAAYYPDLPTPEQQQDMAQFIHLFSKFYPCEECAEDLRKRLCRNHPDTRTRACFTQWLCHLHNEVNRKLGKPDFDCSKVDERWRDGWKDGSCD
Calb FLC: affects C. albicans growth with fluconazole; actives 0.57% (n = 300,000); growth inhibition, % (test concentration not listed); C. albicans CaCi-2 (fluconazole-resistant clinical isolate) + fluconazole, Alamar Blue growth, 48 h;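 active = most replicates above 75%; inconclusive = exactly half above 75%; inactive = most below 75%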;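 note: all wells also contain fluconazole at 8 µg/ml as a sub-toxic cotreatment; 0% = median of DMSO wells and 100% = median of geldanamycin control wells; wells of about 8 µL received 7.5 nL stock; the first replicate is given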
T cruzi repl: T. cruzi replication inhibition | inhibition, % (no concentration beside the values) | AID 1885 | actives 1.4% (n = 300,000) | T. cruzi beta-gal in NIH3T3, luminescence, 90 h;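 active = mean inhibition across valid replicates above about 55%, limit read from the data; inconclusive = mean below that limit but half or more replicates reach it; inactive = mean below it, under half of replicates reach it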;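 note: signal also drops with host cell toxicity which is not excluded here; 0% = plate median of DMSO wells and 100% = zero luminescence signal; higher percent means less beta-gal luminescence so fewer parasites; stock transfer was 50 nL into about 50 µL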
RanGTP-Impb inh: inhibitors of RanGTP-importin-beta interaction, primary screen, biochemical, FRET, CFP-Ran, YFP-importin-beta, homogeneous | actives 1.1% (n = 300,000) | AID 2216 | inhibition, % (no concentration beside the values) | cell-free CFP-Ran/YFP-importin-beta FRET ratio;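 active = most replicates above 15%; inconclusive = exactly half above 15%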;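 note: 0% = DMSO wells and 100% = Ran loaded with GDP instead of GTP; wells of about 40 µL received 100 nL stock; the first replicate is given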
FGF22 binding: FGF22 (human) thermal shift binding; Q9HCT0; recombinant FGF22 thermal shift, SYPRO orange fluorescence; percent of sucrose octasulfate shift, DMSO zero; calls only at 9.99 µM; actives 1.5% (n = 340,000); AID 651658;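 active = melting point raised past a set limit in the mean and every replicate; inconclusive = no clear call; three in four hits are not shown here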
Target sequence (Q9HCT0 whole entry, looked up): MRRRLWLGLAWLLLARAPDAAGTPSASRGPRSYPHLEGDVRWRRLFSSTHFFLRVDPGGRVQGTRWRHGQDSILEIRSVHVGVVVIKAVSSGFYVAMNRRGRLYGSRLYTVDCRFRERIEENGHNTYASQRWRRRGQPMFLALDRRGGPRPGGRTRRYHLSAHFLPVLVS
Beta cell apopt: blocks beta cell apoptosis. protection from apoptosis, % (test concentration not listed). INS-1E cytokine-induced death, ATP luminescence, 48 h; percent of positive-control rescue, neutral wells zero. actives 0.8% (n = 300,000);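 active = all replicates at 75% or more, or half of them and the mean; inconclusive = half reach 75% but not the mean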;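 note: 0% = cytokine-treated negative control wells and 100% = positive control rescue; higher means more ATP so stronger rescue from cytokine killing; wells of about 40 µL received 100 nL stock; the first replicate is given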
AF4-AF9 inh: blocks AF4 peptide binding to human AF9; actives 0.47% (n = 350,000); AlphaScreen, biotin-AF4 peptide binding to FLAG-AF9; inhibition, % at 10 µM; P42568;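 active = every replicate reaching a set inhibition limit, whatever the replicate mean, cut at about 25% in these data; inconclusive = mean inhibition reaches that limit but some replicates miss it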;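 note: 0% = plate neutral control median and 100% = total signal loss; the record names both 10 and 1 µM as test concentration; the first replicate is given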
Target sequence (P42568 whole entry, looked up): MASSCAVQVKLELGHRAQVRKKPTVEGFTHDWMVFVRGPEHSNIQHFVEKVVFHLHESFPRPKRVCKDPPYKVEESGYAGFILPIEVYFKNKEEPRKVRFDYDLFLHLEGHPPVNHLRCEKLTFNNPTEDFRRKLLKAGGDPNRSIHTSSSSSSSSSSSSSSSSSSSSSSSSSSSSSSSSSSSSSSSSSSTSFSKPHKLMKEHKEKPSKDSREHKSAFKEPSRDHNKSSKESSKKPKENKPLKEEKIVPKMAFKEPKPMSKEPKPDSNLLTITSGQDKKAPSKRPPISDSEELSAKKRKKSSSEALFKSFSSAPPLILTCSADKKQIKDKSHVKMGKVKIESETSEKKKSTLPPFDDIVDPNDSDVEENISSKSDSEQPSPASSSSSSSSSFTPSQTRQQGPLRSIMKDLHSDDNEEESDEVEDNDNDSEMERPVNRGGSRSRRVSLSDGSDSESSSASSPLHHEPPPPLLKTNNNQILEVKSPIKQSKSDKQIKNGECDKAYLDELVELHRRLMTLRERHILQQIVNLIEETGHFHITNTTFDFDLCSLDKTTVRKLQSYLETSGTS
Ecoli rRNA inh: selective bacterial rRNA inhibition in E. coli; E. coli WT GFP vs humanized-ribosome RFP mutants, fluorescence, 24 h; hits give low values; DMSO median 0, no signal -100; AID 720706; actives 1.6% (n = 350,000); GFP signal change (wild-type ribosome), % (concentration not given with the values);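 active = significant combined selectivity score with lowered wild-type GFP, culture density cut under 30%, mutant RFP and density less affected; inactive = any of these conditions unmet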; note: one replicate is shown; some compounds called inactive have numbers as strong as hits
Ecoli rRNA inh OD600: further read-out of Ecoli rRNA inh, marked with its call; OD600 change, %; measured here: OD600 growth;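 optical density of the mix in the first replicate; 0 = DMSO median and -100 = no signal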
Ecoli rRNA inh RFP: second read-out of Ecoli rRNA inh, no call of its own (marks repeat the call); RFP signal change, %; measured here: RFP humanized mutant strains;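 first replicate; 0 = DMSO median and -100 = no signal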
Active calls of the source: *; i = inactive; ? = inconclusive; nt = no result given; & = joins results of further samples.

| Compound | ALR H2O2 inh | Calb FLC | T cruzi repl | RanGTP-Impb inh | FGF22 binding | Beta cell apopt | AF4-AF9 inh | Ecoli rRNA inh | Ecoli rRNA inh OD600 | Ecoli rRNA inh RFP |
| --- | --- | --- | --- | --- | --- | --- | --- | --- | --- | --- |
| C=CCc1cccc(/C=N/c2nc3ccccc3n2CC)c1O | 4 | 32 | 0 | -0.8 | i | -7 | -38 | 10 | 15 | 7.8 |
| COc1ccc(-c2nn(-c3ccccc3)cc2C#N)cc1 | -3 | -2 | 8 | 1.1 | nt | 0 | nt | nt | nt | nt |
| CN(C)S(=O)(=O)N1CCN(C(=O)c2ccccc2Cl)CC1 | -1 | -4 | -22 | -3.5 | nt | -1 | nt | nt | nt | nt |
| CCCCC(=O)N/N=C/c1cc([N+](=O)[O-])ccc1N1CCOCC1 | -2 | 25 | 5 | ? | nt | 3 | nt | nt | nt | nt |
| Cc1cccc(N2CC(C(=O)Nc3ccccc3N3CCOCC3)CC2=O)c1C (stereo not drawn) | -20 | nt | nt | nt | i | -2 | -2.0 | 2 | 1 | 0.5 |
| CN(C)Cc1nc2c([nH]1)c(=O)n(C)c(=O)n2C | -30 | -3 | -7 | 7.5 | i | -7 | 2.6 | 13 | 16 | 6.2 |
| COC(CNC(=O)CNC(=S)N(Cc1ccccc1)Cc1cccs1)OC | 0 | -3 | -3 | -2.4 | i | -3 | -1.8 | -7 | -5 | 2.7 |
| Cc1ccc(C)c2sc(NC(=O)c3ccc(N4C(=O)CCC4=O)cc3)nc12 | -3 | 5 | -15 | -3.2 | i | -3 | 1.9 | 3 | 5 | -2.7 |
| COCc1cc(=O)[nH]c(Sc2c(-c3ccccc3)c3ccc(Cl)cc3[nH]c2=O)n1 | -13 | -6 | -5 | 6.8 | nt | -3 | nt | nt | nt | nt |
| Cc1ccc(CNC(=O)C2CCCN2S(=O)(=O)c2ccc(Cl)cc2)cc1 (stereo not drawn) | nt | 5 | 11 | 0.8 | i | -5 | -2.5 | -5 | 7 | -0.1 |
| Cc1cccnc1NC(=S)NCCc1ccccc1 | nt | -1 | 1 | -4.0 | i | 7 | -11 | -52 | -69 | -23 |
| COc1cc(/C=C2/C(=N)N3C(SC)=NSC3=NC2=O)ccc1OC(=O)c1ccco1 | 37 | 0 | -4 | -2.0 | i | 2 | 1.7 | 12 | 1 | 16 |
| CCN(CC)S(=O)(=O)c1ccc(OC)c(NC(=O)c2cn(CC)c3nc(C)ccc3c2=O)c1 | 0 | 10 | -3 | 2.9 | i | 6 | -0.3 | -48 | -70 | -13 |
| COC(=O)Cc1ccc(NC(=O)c2ccccc2Cl)cc1 | -2 | 5 | -23 | 6.4 | i | 8 | -1.3 | -14 | -9 | -1.9 |
| O=C(Nc1ccc2c(c1)oc1ccccc12)c1ccncc1 | -6 | -2 | 26 | -2.6 | nt | 8 | nt | nt | nt | nt |
| Cc1ccc(NC(=O)C2COc3ccccc3O2)cc1C (stereo not drawn) | -6 | 2 | -1 | 1.8 | nt | nt | nt | nt | nt | nt |
| N=C1S/C(=C\c2cn[nH]c2-c2ccc(F)cc2)C(=O)N1c1ccccc1F | -5 | 24 | -4 | 1.5 | nt | -26 | nt | nt | nt | nt |
| Cn1ccnc1C(=O)Cc1ccc([N+](=O)[O-])cc1 | 58 | -2 | 3 | 0.3 | i | 5 | -1.1 | 21 | 16 | -1.9 |
| CC(C)Sc1nc2c(cnn2-c2ccccc2)c(=O)[nH]1 | -7 | 2 | 1 | 4.4 | i | nt | 36* | 8 | 0 | 2.2 |
| O=C1CNC(=S)N1c1nc2ccccc2s1 | 95* | 61 | 1 | 3.4 | i | 5 | -0.7 | -27 | -36 | 4.4 |
| O=C(COC(=O)c1cccc(S(=O)(=O)N2CCCCCC2)c1)Nc1ccccc1C(F)(F)F | 5 | nt | nt | nt | i | -5 | -0.6 | 2 | 15 | -1.5 |
| O=C1CC2(CCCCC2)Oc2ccc(O)cc21 | 59 | -20 | -19 | 0.5 | nt | -3 | nt | nt | nt | nt |
| CN(C(=O)c1cccc(OC2CCN(S(=O)(=O)N(C)C)CC2)c1)C1CCOC1 (stereo not drawn) | nt | 0 | -7 | -6.2 | i | nt | 0.5 | 7 | 3 | 1.2 |
| COC(C[C@@H]1O[C@@H]1[C@H](O)[C@@H](C)OCc1ccccc1)OC | -4 | 10 | 4 | 2.3 | i | -1 | 1.5 | 4 | 23 | 1.5 |
| Cc1ccc(OC(=O)c2ccc(C)c([N+](=O)[O-])c2)cn1 | nt | 3 | -8 | 3.2 | i | -9 | -0.7 | 13 | 3 | -1.5 |

Next results.
| Compound | ALR H2O2 inh | Calb FLC | T cruzi repl | RanGTP-Impb inh | FGF22 binding | Beta cell apopt | AF4-AF9 inh | Ecoli rRNA inh | Ecoli rRNA inh OD600 | Ecoli rRNA inh RFP |
| --- | --- | --- | --- | --- | --- | --- | --- | --- | --- | --- |
| O=C(c1cccc([N+](=O)[O-])c1)c1ccc2c(c1)C(=O)NC2=O | -2 | 3 | -2 | -0.4 | i | 2 | 0.1 | 10 | 13 | 1.5 |
| Cc1nn(C)cc1/C=N/NC(=O)CSc1ccccn1 | 0 | -5 | -8 | 5.9 | i | -3 | -0.6 | 6 | 2 | -1.1 |
| COc1ccc(-c2csc(C)n2)cc1OC | 1 | -8 | -9 | 4.5 | nt | -8 | nt | nt | nt | nt |
| Cc1ccccc1NC(=O)NCC1CCN(c2ccc(S(=O)(=O)N3CCOCC3)cc2)CC1 | nt | -11 | -13 | 2.1 | i | 4 | 1.3 | 8 | 24 | -0.1 |
| O=C(Nc1ccc(F)cc1)C1CCCN(c2cnccn2)C1 (stereo not drawn) | -6 | -8 | 35 | -0.7 | i | nt | -0.8 | 12 | 5 | -1.2 |
| CCO[C@H]1OC(C(=O)O)=C[C@@H](c2ccccc2)[C@@H]1CCCO | -1 | 6 | -7 | 2.2 | i | -5 | -0.7&-10 | -2 | -14 | 3.4 |
| CCC(c1nnc(SCC(=O)Nc2ccc(C(=O)N(C)C)cc2)n1Cc1ccccc1)N(C)C (stereo not drawn) | -9 | -3 | 4 | 2.5 | i | nt | 2.5 | 1 | 5 | -0.5 |
| CN(C)c1ccc(C2C3C(=O)NC(=O)C3ON2c2ccc(Cl)cc2)cc1 (stereo not drawn) | nt | -5 | 2 | 22* | i | -3 | 8.0 | -16 | -15 | -2.2 |
| CCOc1ccc(N(C(=O)CNC(=O)c2ccco2)C(C(=O)NCC2CCCO2)c2ccccc2)cc1 (stereo not drawn) | 11 | 8 | -4 | ? | i | -4 | 0.6 | 2 | 7 | 0.6 |
| CCCc1nc(-c2cc3ccccc3[nH]c2=O)no1 | -2 | 8 | -6 | 3.4 | nt | 1 | -6.6 | 6 | 5 | 4.4 |
| Cc1onc(-c2ccccc2)c1C(=O)NC(C)CCc1ccccc1 (stereo not drawn) | -4 | -5 | 15 | -1.6 | i | -5 | 2.9 | 10 | 21 | -2.7 |
| Cc1ccc(S(=O)(=O)NCc2cccnc2)s1 | nt | 7 | -17 | -2.9 | nt | -3 | nt | nt | nt | nt |
| O=C(NCCCc1ccccc1)c1cncc(Br)c1 | -31 | -10 | -1 | 2.3 | i | 4 | -1.3 | 6 | 6 | -0.8 |
| COC(=O)c1ccccc1C(=O)c1cccc2ccccc12 | 3 | 23 | -10 | 7.4 | i | -5 | -3.0 | -15 | -38 | -3.5 |
| O=S(=O)(O)c1nc2ccccc2n1Cc1cccc2ccccc12 | -26 | 9 | -10 | -5.3 | nt | -3 | nt | nt | nt | nt |
| C#CCOCCOCCOCCNc1nc(N2CCN(C(=O)C(Cc3ccc(O)cc3)n3cc(C(N)CC(C)C)nn3)CC2)nc(N2CCN(C(=O)C(Cc3cc4ccccc4[nH]3)n3cc(C(N)Cc4ccc(O)cc4)nn3)CC2)n1 (stereo not drawn) | -6 | 1 | -17 | 3.2 | nt | -2 | nt | nt | nt | nt |
| COc1ccc(Cc2nnc(NC(=O)CSc3ccccc3)s2)cc1OC | -11 | 15 | -1 | -1.2 | nt | -10 | nt | nt | nt | nt |
| COCCNC(=O)c1ccc(CS(=O)(=O)c2ccc(C)cc2)o1 | -4 | 6 | 3 | -0.7 | nt | -5 | nt | nt | nt | nt |
| CC12CCC(C(=O)N3CCCCC3)([C@H](Br)C1=O)C2(C)C (stereo partly drawn) | -15 | 24 | 6 | 2.8 | i | -2 | -15 | 3 | 3 | 4.0 |
| Cc1cccc(NC(=O)[C@H](Cc2c[nH]c3ccccc23)NC(=O)[C@@H]2Cc3ccccc3CN2)c1 | -10 | -2 | 13 | 0.5 | i | nt | 3.5 | nt | nt | nt |
| Cc1c(C(=O)N(Cc2ccccc2)C2CCS(=O)(=O)C2)oc2ccccc12 (stereo not drawn) | -14 | 5 | 11 | -0.6 | i | -2 | ? | 1 | -8 | 9.7 |
| CN(CC(=O)N1CCN(c2ccc(F)cc2)CC1)S(=O)(=O)c1ccc2c(c1)c(=O)n(C)c(=O)n2C | nt | -12 | 23 | 3.6 | i | 3 | 0.5 | 4 | -5 | 0.7 |
| Cc1c(/C(O)=C2\C(=O)C(=O)N(CCN(C)C)C2c2ccco2)cnn1-c1ccccc1 (stereo not drawn) | 0 | ? | -16 | -2.2 | nt | -7 | nt | nt | nt | nt |
| N#Cc1c(NC(=O)C2CC(c3ccccc3O)=NO2)sc2c1CCC2 (stereo not drawn) | nt | 4 | 4 | 1.3 | i | -5 | 1.2 | -12 | -16 | 0.3 |
| Cc1ccc(-n2nc(C)c3c(C)c(CCC(=O)NC(C)c4ccccc4)c(C)nc32)cc1 (stereo not drawn) | -6 | 2 | 15 | -1.9 | i | 15 | 0.8 | 6 | 5 | -1.2 |
| Cc1cc(-n2nc(C)cc2C)n2ncc(-c3ccccc3)c2n1 | -25 | 64 | 0 | -2.5 | nt | -3 | nt | nt | nt | nt |
| Cc1ccc(NC(=O)CCS(=O)(=O)c2ccc3nc(C)sc3c2)cc1 | -1 | 3 | -9 | -1.7 | i | -2 | -1.5 | 4 | 8 | 0.2 |

Record cards, as listed above. Order of screens: ALR H2O2 inh	Calb FLC	T cruzi repl	RanGTP-Impb inh	FGF22 binding	Beta cell apopt	AF4-AF9 inh	Ecoli rRNA inh	Ecoli rRNA inh OD600	Ecoli rRNA inh RFP
Shown for N#Cc1c(NC(=O)C2CC(c3ccccc3O)=NO2)sc2c1CCC2 (stereo not drawn) : nt	4	4	1.3	i	-5	1.2	-12	-16	0.3
Shown for Cc1cccc(NC(=O)[C@H](Cc2c[nH]c3ccccc23)NC(=O)[C@@H]2Cc3ccccc3CN2)c1 : -10	-2	13	0.5	i	nt	3.5	nt	nt	nt
Shown for Cc1ccccc1NC(=O)NCC1CCN(c2ccc(S(=O)(=O)N3CCOCC3)cc2)CC1 : nt	-11	-13	2.1	i	4	1.3	8	24	-0.1
Shown for Cc1ccc(S(=O)(=O)NCc2cccnc2)s1 : nt	7	-17	-2.9	nt	-3	nt	nt	nt	nt
Shown for CC12CCC(C(=O)N3CCCCC3)([C@H](Br)C1=O)C2(C)C (stereo partly drawn) : -15	24	6	2.8	i	-2	-15	3	3	4.0

Only part of the results is shown; rates above refer to the full screens.
